High-throughput results: PubChem BioAssay, National Center for Advancing Translational Sciences (NCATS)
LASV entry inh = inhibitors of Lassa virus binding or cell entry; Potency, µM (top dose mostly 37.9 µM), for the others: top-dose activity change, negative = inhibition, usual class: inhibitors; 300,000 compounds, 1.2% hits; Lassa virus pseudotype entry inhibition, cell reporter; control for the full effect not named in the record; active means well fitted inhibition curve with a large enough effect; inconclusive means small, poorly fitted or top-dose-only effect, or effect the other way; inactive means flat fitted curve, though single readings scatter; tested in HEK293 cells; further: on the % scale 0 is the no-effect control and ±100 the full control effect; nearly all actives have a fitted effect of over 50% in size; luciferase read-out
Marburg entry inh = blocks Marburg virus binding to or entry into cells; Marburg virus pseudotyped entry inhibition, cell reporter; control for the full effect not named in the record; about a third of the inactives were read at about 46 µM; Potency, µM (series often up to 37.8 µM), for the others: top-dose activity change, negative = inhibition, usual class: inhibitors; 300,000 compounds, 1.8% hits; AID 540276; active = well fitted inhibition curve with a large enough effect; inconclusive = small, poorly fitted or top-dose-only effect, or effect the other way; inactive = flat fitted curve, though single readings scatter; tested in HEK293 cells; about a fifth of its hits are not listed in these tables; further: on the % scale 0 is the no-effect control and ±100 the full control effect; luciferase read-out
Cruzain inh Det = blocks cruzain activity in presence of Triton detergent; Potency, µM, inactives show max response, negative = inhibition, usual class: inhibitors; purified cruzain, Z-FR-AMC fluorescence, 0.01% Triton; 200,000 compounds, 0.43% hits; AID 1478; P25779;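 further: plate controls were neutral wells for no effect and buffer without enzyme for full effect; nearly all actives have a fitted effect of over 40% in size; top concentration of the series not given in the record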
Target sequence (P25779 123-467 limits assumed): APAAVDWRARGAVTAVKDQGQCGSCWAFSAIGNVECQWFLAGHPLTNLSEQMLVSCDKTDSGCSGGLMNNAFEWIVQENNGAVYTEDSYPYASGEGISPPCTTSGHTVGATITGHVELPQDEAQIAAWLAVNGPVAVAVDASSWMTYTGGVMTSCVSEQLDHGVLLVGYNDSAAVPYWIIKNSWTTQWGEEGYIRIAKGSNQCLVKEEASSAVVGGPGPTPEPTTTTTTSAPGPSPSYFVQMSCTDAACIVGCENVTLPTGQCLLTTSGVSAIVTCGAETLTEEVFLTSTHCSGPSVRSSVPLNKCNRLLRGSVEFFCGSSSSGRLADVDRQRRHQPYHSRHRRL
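Compounds were screened in titration against cruzain (1.5 nM) with 0.01% Triton X-100 to counter colloidal aggregation. Activity was the AMC fluorescence increase over 60 s after adding 2 uM Z-FR-AMC at pH 5.5.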
StopGo reporter = lowers the luciferase signal of an FMDV 2A StopGo reporter; human cells with a luciferase reporter of 2A StopGo recoding; control for the full effect not named in the record; Potency, µM (series often up to 57.9 µM), for inactives: at the top dose signal change, negative = less light; 410,000 compounds, 1.2% hits; active = well fitted falling curve with a large enough effect; inconclusive = small, poorly fitted or top-dose-only effect; inactive = no such curve, though single readings can be large or run the other way; tested in HEK293T cells; further: on the % scale 0 is the no-effect control and ±100 the full control effect; nearly all actives have a fitted effect of over 45% in size; luciferase light after 4 h
NS1 inh = blocks influenza NS1 protein function; Potency, µM (top dose mostly 46.1 µM), inactives show at the top dose activity, positive = more growth; AID 2326; S. cerevisiae slowed by influenza A NS1, growth recovery by OD600; 270,000 compounds, 0.4% hits; active means well fitted rising curve with a large enough effect; inconclusive means small, poorly fitted or top-dose-only effect; inactive means no such curve, though single readings can be large or run the other way; further: nearly all actives have a fitted effect of over 50% in size
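Compounds were scored for reversing the slow growth caused by influenza A NS1 in S. cerevisiae, measured by optical density at 600 nm. Assay medium contained 2% galactose at pH 6.0; NS1-free yeast of the same strain were the positive control.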
RE007 growth inh = less growth of the S. pombe RE007 Vpr strain | Potency, µM (doses to about 92.2 µM), for inactives: at the top dose activity change, negative = less growth | S. pombe RE007 Vpr strain, BacTiter-Glo ATP luminescence, 24 h; control for the full effect not named in the record | 360,000 compounds, 0.21% hits; active = well fitted falling curve with a large enough effect; inconclusive = small, poorly fitted or top-dose-only effect; inactive = no such curve, though single readings can be large or run the other way;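 further: on the % scale 0 is the no-effect control and ±100 the full control effect; nearly all actives have a fitted effect of over 50% in size; the assay follows cell death caused by Vpr and the record does not say whether a fall means rescue or toxicity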
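Fission yeast RE007 carrying one integrated HIV-1 vpr copy, seeded at OD 0.01 in PMG+AL medium with 23 nL pinned compound. Grown 24 h at 30 degrees; viability read by BacTiter-Glo luminescence after 5 min.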
Cruzain inh noDet = inhibitors of Trypanosoma cruzi cruzain without detergent; purified cruzain, Z-FR-AMC fluorescence, no detergent; 200,000 compounds, 2.3% hits; AID 1476; Potency, µM, inactives show max response, negative = inhibition, hits mostly inhibitors; P25779;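 further: plate controls were enzyme without inhibitor for no effect and buffer without enzyme for full effect; nearly all actives have a fitted effect of over 40% in size; top concentration of the series not given in the record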
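Purified cruzain at 1.5 nM, pre-incubated 15 min with compound at room temperature in 100 mM sodium acetate pH 5.5, 5 mM DTT, 0.00005% Triton X-100. Reaction started with 2 uM Z-FR-AMC; AMC fluorescence increase over 60 s gives rate.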
SARS PLpro yeast = blocks SARS-CoV papain-like protease in a yeast assay | Potency, µM (doses to about 32.9 µM), inactives show at the top dose activity, positive = growth rescue | S. cerevisiae expressing SARS-CoV PLpro, growth rescue; control for the full effect not named in the record | 330,000 compounds, 0.19% hits; active means well fitted rising curve with a large enough effect; inconclusive means small, poorly fitted or top-dose-only effect; inactive means no such curve, though single readings can be large or run the other way; further: 0% is about no effect; nearly all actives have a fitted effect of over 55% in size; growth read by luminescence after 48 h
Numbers without * were called inactive; ? = inconclusive; · = not tested or not shown; & = joins results of further samples; [ ] = remark or other dose. Unless noted, the call rests on the fitted dose curve; in most records, active means well fitted curve in the direction sought with a large enough effect; inconclusive means small, poorly fitted or top-dose-only effect, or another doubt; inactive means no such curve, though single readings can be large; an effect the other way counts as inactive or inconclusive. Potency means the concentration at half of the fitted maximal effect.

SMILES	LASV entry inh	Marburg entry inh	Cruzain inh Det	StopGo reporter	NS1 inh	RE007 growth inh	Cruzain inh noDet	SARS PLpro yeast
c1ccc(CNc2nc3ccccc3n3cnnc23)cc1	·	·	-5.0%	0.0%	-10.7%	-3.0%	-27.5%	6.5%
Cc1cc(CN2CCC(n3nccc3NC(=O)c3ccccc3C)CC2)n[nH]1	14.5%[46.1 µM]	-3.5%[46.1 µM]	·	-6.2%	1.7%	-4.4%	·	0.8%
Cc1ccc2nc(/C(C#N)=C/c3ccccc3C(=O)O)[nH]c2c1	9.0%[46.1 µM]	-1.3%[46.1 µM]	·	8.6%	16.0%	-17.0%	·	2.4%
CN1CCc2c(sc(NC(=O)c3ccc(C(=O)c4ccccc4)cc3)c2C(N)=O)C1	·	·	·	-17.0%	-10.4%	-3.7%	·	-5.9%
CC(C)(C)C(=O)Nc1sc2c(c1-c1nc3ccccc3[nH]1)CCCC2	4.3%	?	-10.3%	-6.2%	13.5%	0.1%	-19.9%	-0.9%
Cc1cccc(NC(=O)COC(=O)c2cccs2)c1C	2.1%[46.1 µM]	-8.1%[46.1 µM]	·	7.5%	16.8%	8.6%	·	-8.8%
CC(C)(C)c1nn(-c2ccccc2)c2nc(Cl)c(C=O)cc12	·	·	11.2%	0.0%	3.4%	0.5%	-3.3%	-0.2%
Cc1cc(/C=C2\C(=N)N3N=C(S(C)(=O)=O)SC3=NC2=O)c(C)n1Cc1ccccc1	3.2%	23.7%[46.1 µM]	·	-15.9%	·	-4.4%	·	-0.8%
CCOc1ccc(CN2C(=O)c3ccccc3Sc3ccc(C(=O)NCc4ccco4)cc32)cc1	?	?	-4.0%	-21.1%	·	·	31.6µM*	·
COc1cc(Cl)c(C)cc1NC(=O)COC(=O)/C=C/c1c(C)nn(C2CCS(=O)(=O)C2)c1Cl (stereo unspecified)	-5.9%	-16.8%	-2.7%	?	11.3%	1.4%	26.2%	1.5%
CC(C)C[C@@H](COc1ccccc1)N1CCN(CCc2ccccc2)CCC1=O	·	·	·	0.0%	7.2%	-10.2%	·	0.9%
CCc1ccc(CNC(=O)CCCC(=O)n2nc(C)c3ccccc32)cc1	11.1%[46.1 µM]	-16.0%[46.1 µM]	·	4.6%	?	4.6%	·	-6.1%
O=C(CCc1nc2ccccc2c(=O)[nH]1)NCC(=O)Nc1ccc(F)c(F)c1	10.9%	-2.4%	·	-22.6%	·	-18.0%	·	·
CCOc1ccc(NC(=O)C(=O)NCCN2CCN(S(=O)(=O)c3ccc(C)cc3)CC2)cc1	17.1%	?	·	-20.5%	1.1%	2.4%	·	-1.6%
CCC(c1nnnn1C1CCCC1)N1CCN(c2ccccc2F)CC1 (stereo unspecified)	-13.2%	5.7%	-2.6%	-20.2%	-55.8%	6.7%	7.6%	-0.7%
COc1ccc(Oc2nnc(-c3ccc(C)cc3)c3ccccc23)cc1	-1.8%	-5.5%	-0.9%	·	2.3%	2.4%	3.8%	-3.3%
O=C(NCc1cccnc1)c1c[nH]c2cc3c(cc2c1=O)OCCO3	?	-7.5%	-3.6%	0.0%	0.1%	-2.6%	-0.9%	-8.8%
Cn1c(=O)[nH]c2sc3c(c2c1=O)CC(C)(C)OC3	6.9%	9.9%[46.1 µM]	2.3%	-0.5%	5.6%	0.5%	-1.6%	-0.7%[6.58 µM]
COc1cc2c(cc1OC)C(COc1ccc3c(C)cc(=O)oc3c1)N(C(=O)c1cccc(C)c1)CC2 (stereo unspecified)	-11.6%[46.1 µM]	-0.3%[46.1 µM]	8.1%	-10.9%	·	·	-5.3%	·
COc1ccc(NC(=O)CNC(=O)C23CC4CC(CC(C4)C2)C3)c(OC)c1	7.0%	-15.0%[46.1 µM]	·	-13.3%	·	-2.0%	·	-0.5%
CCOc1nc(-c2ccccc2)ccc1-c1noc(COc2ccccc2)n1	3.9%	?	-1.3%	-4.1%	-10.6%	4.7%	?	12.7%
O=c1/c(=C/c2ccccn2)sc2nc3ccccc3n12	-9.6%	?	1.3%	10µM*	-0.8%	-16.4%	?	-3.1%
COc1ccc(C)cc1S(=O)(=O)Nc1cccc(Cl)c1	3.1%	-19.6%	-7.0%	58.7%[activator]	-1.2%	22.3%	-13.6%	-2.5%
COc1ccc(-c2nc3c(c(SCC(=O)N4CCOCC4)n2)Cc2c(CO)cnc(C)c2O3)cc1	·	·	·	?	0.8%	7.6%	·	1.9%
O=C(CCN1C(=O)C2C3CC(C(Br)C3Br)C2C1=O)OCC(=O)c1cccc([N+](=O)[O-])c1 (stereo unspecified)	7.4%	13.5%[46.1 µM]	·	10.1%	-1.2%	-4.0%	·	0.2%
Further compounds follow.
SMILES	LASV entry inh	Marburg entry inh	Cruzain inh Det	StopGo reporter	NS1 inh	RE007 growth inh	Cruzain inh noDet	SARS PLpro yeast
Clc1ccccc1CN1CCN(c2ccccc2)CC1	8.3%	-21.7%	3.0%	0.0%	-3.2%	-2.1%	1.8%	13.0%
COC(=O)c1c(NC(=O)COC(=O)c2ccccn2)sc(C)c1C	-10.3%	1.0%	·	-15.8%	·	10.1%	·	-14.9%
CC(C)N(C(=O)CSc1nnc(Cc2csc(Nc3ccccc3)n2)o1)C(C)C	?	?	·	?	·	-22.4%	·	20.3%
Cn1c(=O)cc(SCC(=O)NCCCN2CCOCC2)c2ccc(Cl)cc21	11.0%	19.6%	-1.5%	2.7%	-1.0%	-17.3%	7.6%	-9.3%
CCn1cc(CCCC(=O)NCc2cccnc2)c2ccccc21	·	·	·	-7.3%	-4.5%	-2.9%	·	2.1%
COc1ccc(N(CC(=O)N2CCN(Cc3ccccc3)CC2)S(C)(=O)=O)cc1OC	·	·	·	-11.0%	18.8%	5.2%	·	2.0%
CCc1cccc(NC(=O)CN(C)S(=O)(=O)c2ccc3c(c2)n(C)c(=O)c(=O)n3C)c1	13.1%[46.1 µM]	-3.8%[46.1 µM]	-1.5%	-11.3%	·	·	-4.0%	·
C=CCO/N=C/C1=C(O)C(C(=O)OC)C(C)(C)CC1=O (stereo unspecified)	-0.5%	10.9%[46.1 µM]	·	-19.3%	1.7%	0.6%	·	-0.4%
CCc1ccc(NC(=O)CN2C(C(=O)OC)=C(c3ccccc3)c3ccccc3S2(=O)=O)cc1	?	?	-7.8%	-17.1%	·	·	-11.1%	·
Cc1ccccc1OCc1ccc(-c2nc(C#N)c(N3CCN(C)CC3)o2)o1	?	-9.5%[46.1 µM]	-6.8%	?	·	·	-1.4%	·
CN(C)c1cccc2c(S(=O)(=O)N3CCOCC3)cccc12	0.8%	-12.1%&-12.1%	-4.1%	1.9%	-10.8%	2.6%	8.5%	-0.9%
Cc1ccc(C(=O)C2=C(O)C(=O)N(Cc3ccco3)C2c2cccc(Br)c2)o1 (stereo unspecified)	5.7%	1.3%	·	27.7%	?	-5.4%	·	3.3%
N#CCC(=O)Nc1ccc(C(=O)OCC(=O)Nc2ccccc2-c2ccccc2)cc1	7.6%	1.7%[46.1 µM]	·	-7.4%	·	-0.5%	·	0.9%
O=C(O)c1cc2n(n1)C(C(F)(F)F)CC(c1ccco1)N2 (stereo unspecified)	-3.4%	13.6%	2.8%	3.2%	-1.5%	28.1%	-11.4%	·
CCOc1cccc(NC(=O)C2CC(=O)N(C)C(=Nc3cccc(F)c3)S2)c1 (stereo unspecified)	?	-29.9%	-7.3%	·	-77.0%	-4.8%	?	-7.4%
COC(=O)c1ccc2c(=O)n(-c3ccccc3F)c(=S)[nH]c2c1	·	-11.6%[46.1 µM]	·	?	·	4.2%	·	1.3%
O=C(CN1CCN(S(=O)(=O)c2ccccc2F)CC1)Nc1ccccc1C(=O)c1ccccc1	?	?	·	-24.6%	·	-1.2%	·	0.0%
COc1cccc(-n2cc(C(=O)NCc3ccc(C)cc3)c3ccccc3c2=O)c1	9.7%[46.1 µM]	·	-2.6%	-0.9%	·	·	10.0%	·
CCc1ccc(S(=O)(=O)n2ccnc2)cc1	12.1%[46.1 µM]	·	2.6%	2.6%	·	·	3.2%	·
CS(=O)(=O)Nc1ccc(C2=NN(C(=O)c3ccco3)C(c3ccc(F)cc3)C2)cc1 (stereo unspecified)	-29.3%[46.1 µM]	?	·	-22.3%	·	19.3%	·	-2.3%
O=C(CNC(=O)c1ccccc1F)OCCCOC(=O)CNC(=O)c1ccccc1F	7.2%	-0.3%	·	-19.7%	·	-5.0%	·	-0.1%
CSC1=C(C#N)C(=O)NC(c2ccccc2O)S1 (stereo unspecified)	25.7%	-2.1%	·	?	1.8%	-1.3%	·	1.0%
COc1cccc2c1ncc1c(-c3ccc(C)cc3)nn(-c3cccc([N+](=O)[O-])c3)c12	22.3%[46.1 µM]	·	-0.9%	-6.2%	·	·	-2.7%	·
O=C(CN1C(=O)NC2(CCCC2)C1=O)Nc1nc(-c2ccc(F)cc2)cs1	?	?	-5.4%	?	-5.0%	2.1%	-4.8%	7.4%
CC(=O)c1cc(Cc2csc(C(C)=O)c2)cs1	17.8%	13.7%	-2.5%	·	-15.1%	10.4%	0.2%	-4.4%
O=C(c1ccccc1)N(Cc1ccccc1)c1ccccn1	0.0%	-7.3%	-2.5%	-11.6%	0.1%	2.2%	5.5%	-0.2%
CCOC(=O)C1CCN(C(=O)C(C)Sc2nnc3ccccn23)CC1 (stereo unspecified)	2.1%[46.1 µM]	4.5%[46.1 µM]	·	13.0%	·	-19.5%	·	-9.3%
Cc1cccc(C)c1NC(=O)CN(C)C(=O)c1ccc(NS(=O)(=O)c2ccc3[nH]c(=O)[nH]c3c2)cc1	-4.9%	-1.0%[46.1 µM]	·	-3.3%	·	-22.9%	·	-1.4%
O=S(N1CCCCC1)C12CC3CC(CC(C3)C1)C2 (stereo unspecified)	0.1%	7.3%[46.1 µM]	·	4.4%	·	4.5%	·	-2.0%
CC1(C)Cc2c(cnn2-c2ccccc2)C(NC(=O)CCCn2cncn2)C1 (stereo unspecified)	?	-10.0%	·	57.8%[activator]	8.8%	-12.4%	·	-0.2%
